MARV entry inh = inhibitors of Marburg virus binding or cell entry; Potency, µM (highest dose often 37.8 µM), inactives show at the highest dose activity change, negative = inhibition, hits mostly inhibitors; AID 540276; Marburg virus pseudotyped entry inhibition, cell reporter; control for the full effect not named in the record; about a third of the inactives were read at about 46 µM; actives 1.8% (n = 300,000); active = well fitted inhibition curve with a large enough effect; inconclusive = small, poorly fitted or top-dose-only effect, or effect the other way; inactive = flat fitted curve, though single readings scatter; tested in HEK293 cells; about a fifth of its hits are not listed in these tables; also: % is scaled to controls: 0 for no effect and ±100 for the full control effect; luciferase read-out
Cruzain noTriton = inhibitors of Trypanosoma cruzi cruzain without detergent; actives 2.3% (n = 200,000); P25779; purified cruzain, Z-FR-AMC fluorescence, no detergent; Potency, µM, inactives show max response, negative = inhibition, most hits filed as inhibitors; AID 1476; active = well fitted curve in the direction sought with a large enough effect; inconclusive = small, poorly fitted or top-dose-only effect, or another doubt; inactive = no such curve, though single readings can be large; an effect the other way counts as inactive or inconclusive;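 also: plate controls were enzyme without inhibitor for no effect and buffer without enzyme for full effect; nearly all actives have a fitted effect of over 40% in size; top concentration of the series not given in the record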
Target sequence (P25779 123-467 limits assumed): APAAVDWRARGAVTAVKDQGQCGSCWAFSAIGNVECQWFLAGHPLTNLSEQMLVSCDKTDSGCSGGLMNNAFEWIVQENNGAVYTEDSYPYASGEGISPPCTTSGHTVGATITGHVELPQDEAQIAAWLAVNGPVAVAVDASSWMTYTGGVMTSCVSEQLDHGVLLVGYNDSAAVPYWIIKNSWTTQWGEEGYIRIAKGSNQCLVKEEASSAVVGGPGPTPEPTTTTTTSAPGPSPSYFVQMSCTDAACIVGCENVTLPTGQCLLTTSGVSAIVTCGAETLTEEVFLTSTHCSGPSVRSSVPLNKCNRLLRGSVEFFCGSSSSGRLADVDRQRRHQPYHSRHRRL
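Detergent-free condition (0.00005% Triton X-100) in acetate buffer pH 5.5 with DTT. 1.5 nM enzyme and compound were pre-mixed 15 min, then 2 uM Z-FR-AMC substrate added; reaction progress from fluorescence change between first and third reads (60 s).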
NS1 inh = blocks influenza NS1 protein function; S. cerevisiae slowed by influenza A NS1, growth recovery by OD600; Potency, µM (highest dose often 46.1 µM), for inactives: top-dose activity, positive = more growth; actives 0.4% (n = 270,000); also: actives are rising curves; nearly all actives have a fitted effect of over 50% in size
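Recovery from NS1-induced slow growth read by OD600 in budding yeast switched to galactose assay medium (pH 6.0, -URA) at 1:100 dilution. Compound 23 nl per well; the matching strain lacking NS1 serves as control.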
RE007 growth inh = less growth of the S. pombe RE007 Vpr strain | S. pombe RE007 Vpr strain, BacTiter-Glo ATP luminescence, 24 h; control for the full effect not named in the record | Potency, µM (highest dose often 92.2 µM), without a hit: top-dose activity change, negative = less growth | actives 0.21% (n = 360,000); active = well fitted falling curve with a large enough effect; inconclusive = small, poorly fitted or top-dose-only effect; inactive = no such curve, though single readings can be large or run the other way;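 also: % is scaled to controls: 0 for no effect and ±100 for the full control effect; nearly all actives have a fitted effect of over 50% in size; the assay follows cell death caused by Vpr and the record does not say whether a fall means rescue or toxicity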
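Fission yeast strain RE007, carrying one chromosomally integrated HIV-1 vpr copy, was seeded at OD 0.01 in PMG+AL medium with 23 nL pinned compound. After 24 h at 30 °C and 99% humidity, viability was read by BacTiter-Glo luminescence.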
Cruzain inh Det = blocks cruzain activity in presence of Triton detergent; P25779; purified cruzain, Z-FR-AMC fluorescence, 0.01% Triton; Potency, µM, inactives show max response, negative = inhibition, hits mostly inhibitors; actives 0.43% (n = 200,000); AID 1478; active = well fitted curve in the direction sought with a large enough effect; inconclusive = small, poorly fitted or top-dose-only effect, or another doubt; inactive = no such curve, though single readings can be large; an effect the other way counts as inactive or inconclusive;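 also: plate controls were neutral wells for no effect and buffer without enzyme for full effect; nearly all actives have a fitted effect of over 40% in size; top concentration of the series not given in the record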
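Compounds were screened in titration against cruzain (1.5 nM) with 0.01% Triton X-100 to counter colloidal aggregation. Activity was the AMC fluorescence increase over 60 s after adding 2 uM Z-FR-AMC at pH 5.5.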
StopGo reporter = lowers the luciferase signal of an FMDV 2A StopGo reporter. actives 1.2% (n = 410,000). Potency, µM (highest dose often 57.9 µM), inactives show at the highest dose signal change, negative = less light. human cells with a luciferase reporter of 2A StopGo recoding; control for the full effect not named in the record; active = well fitted falling curve with a large enough effect; inconclusive = small, poorly fitted or top-dose-only effect; inactive = no such curve, though single readings can be large or run the other way; tested in HEK293T cells; also: % is scaled to controls: 0 for no effect and ±100 for the full control effect; nearly all actives have a fitted effect of over 45% in size; luciferase light after 4 h
LASV entry inh = inhibitors of Lassa virus binding or cell entry. Lassa virus pseudotype entry inhibition, cell reporter; control for the full effect not named in the record. actives 1.2% (n = 300,000). AID 540256. Potency, µM (series often up to 37.9 µM), without a hit: top-dose activity change, negative = inhibition, actives largely listed as inhibitors; active means well fitted inhibition curve with a large enough effect; inconclusive means small, poorly fitted or top-dose-only effect, or effect the other way; inactive means flat fitted curve, though single readings scatter; tested in HEK293 cells; also: % is scaled to controls: 0 for no effect and ±100 for the full control effect; nearly all actives have a fitted effect of over 50% in size; luciferase read-out
SARS PLP yeast = SARS-CoV PLP inhibition in yeast; S. cerevisiae expressing SARS-CoV PLpro, growth rescue; control for the full effect not named in the record; Potency, µM (series often up to 32.9 µM), for inactives: at the highest dose activity, positive = growth rescue; actives 0.19% (n = 330,000); AID 485353; also: 0% is about no effect; nearly all actives have a fitted effect of over 55% in size; growth read by luminescence after 48 h
Numbers without * were called inactive; ? = inconclusive; nt = no result given; [ ] = another dose, or the depositor's remark. Unless noted, calls follow the shape of the dose curve; as a rule, active means well fitted rising curve with a large enough effect; inconclusive means small, poorly fitted or top-dose-only effect; inactive means no such curve, though single readings can be large or run the other way. Potency is read from the fitted curve at half-maximal effect. Compounds were not picked by outcome; overall some 4.7% were active at least once.

SMILES | MARV entry inh | Cruzain noTriton | NS1 inh | RE007 growth inh | Cruzain inh Det | StopGo reporter | LASV entry inh | SARS PLP yeast
Nc1ccccc1-c1ccccc1N | 25% | nt | 12% | -12% | nt | -7% | 10% | 0%
Cc1ccc(S(=O)(=O)NCc2ccncc2)cc1C | ? | nt | -7% | 23% | nt | 3% | ? | 1%
Cc1ccc(NC(=O)CCSc2nnc(Cc3ccccc3)o2)cc1 | -4% | 10% | -1% | 9% | -3.8% | -7% | -18% | 6%
Cc1ccc(C)c(N2CCN(C(=O)CCc3nnc4n(CC(C)C)c(=O)c5ccccc5n34)CC2)c1 | -16%[46.1 µM] | 5% | nt | nt | -1.1% | -24% | nt | nt
O=C(CSC1=NS(=O)(=O)c2ccccc2N1)Nc1nccs1 | 12% | nt | nt | 2% | nt | -9% | 8% | -1%
Cc1ccc(NC(=O)c2csc3c2CCCC3)cc1 | -25%[46.1 µM] | nt | 8% | -10% | nt | 22% | -23% | -6%
CNC(=O)CSc1nc(N)c2c3c(sc2n1)CCC3 | 15% | 5% | 3% | -8% | -0.5% | 22% | 7% | 0%
CCOc1ccccc1Oc1coc2cc(O)ccc2c1=O | 13% | -1% | -8% | 8% | -0.1% | 16% | -13% | -22%
Cc1ccc2nc(-c3ccccc3)c(NC(=O)c3ccco3)n2c1 | 21% | 2% | 0% | 15% | -2.9% | -17% | 14% | 6%
Cc1ccc(S(=O)(=O)c2nc(-c3ccco3)oc2N2CCC(C)CC2)cc1 | -9% | nt | -39% | 6% | nt | 33%[activator] | -27% | -11%
Cc1cc(C)c2[nH]c(=O)c(C(c3nnnn3Cc3ccc4c(c3)OCO4)N3CCC(C)CC3)cc2c1 (stereo unspecified) | 1% | 22% | -12% | -3% | -5.1% | -16% | -10% | -12%
Cc1cc(-c2ccc(Cl)cc2)n2nc(C)cc2n1 | nt | nt | -3% | -3% | nt | 1% | nt | -4%

3 records drawn at random from the list so far:
SMILES | MARV entry inh | Cruzain noTriton | NS1 inh | RE007 growth inh | Cruzain inh Det | StopGo reporter | LASV entry inh | SARS PLP yeast
Cc1ccc(C)c(N2CCN(C(=O)CCc3nnc4n(CC(C)C)c(=O)c5ccccc5n34)CC2)c1 | -16%[46.1 µM] | 5% | nt | nt | -1.1% | -24% | nt | nt
Cc1cc(-c2ccc(Cl)cc2)n2nc(C)cc2n1 | nt | nt | -3% | -3% | nt | 1% | nt | -4%
CCOc1ccccc1Oc1coc2cc(O)ccc2c1=O | 13% | -1% | -8% | 8% | -0.1% | 16% | -13% | -22%

Additional compounds follow.
SMILES | MARV entry inh | Cruzain noTriton | NS1 inh | RE007 growth inh | Cruzain inh Det | StopGo reporter | LASV entry inh | SARS PLP yeast
Cn1cccc1C(=O)N1CCN(S(=O)(=O)c2ccccc2)CC1 | 5% | nt | nt | -14% | nt | -19% | 3% | nt
CCOc1ccc(CCNC(=O)c2sc3nc4n(c(=O)c3c2C)CCC4)cc1 | nt | nt | 5% | -7% | nt | -5% | nt | -5%
Cc1cc(NC(=O)CC(C)C)c(=O)n(Cc2ccccc2F)c1 | nt | nt | 15% | 13% | nt | 17% | nt | 5%
COc1ccc(Cl)cc1-n1c(=S)sc2c(=O)[nH]c(SCC(=O)NCC3CCCO3)nc21 (stereo unspecified) | 10% | ? | 0% | 13% | -6.2% | 0% | 19%[14.3 µM] | -5%
N#Cc1nc(-c2ccc(Cl)cc2)oc1NCCc1ccccn1 | 6% | 1% | -4% | 14% | 5.8% | 36%[activator] | -18% | 4%
O=c1[nH]cnc2c1sc1nc(-c3ccccc3)c3c(c12)CCCC3 | ? | 1% | 0% | 17% | -3.3% | -8% | 1%[46.1 µM] | 11%
O=c1c(-c2nnc(SCc3ccc(Cl)cc3)o2)cccn1Cc1ccccc1 | ? | 20% | -17% | 11% | 5.6% | -10% | ? | -5%
CC(C(=O)N(C)C)N(C#N)c1nc(N(C)C)nc(N(C)C)n1 (stereo unspecified) | ? | -13% | 1% | 1% | 2.2% | -22% | 5% | 2%
CCOC(=O)C(=CNc1ccc(N2CCOCC2)cc1)C(=O)OCC | nt | nt | -1% | 2% | nt | -5% | nt | 1%
O=C(NNC(=O)c1ncc(Cl)c(Cl)c1Cl)c1ccc(F)cc1 | nt | nt | -9% | 5% | nt | 2% | nt | 0%
O=C(CNS(=O)(=O)c1ccc2ccccc2c1)OCc1csc(-c2ccccc2)n1 | -30% | -4% | -17% | -5% | -16% | -5% | 0% | 3.2µM*
CCOc1ccccc1C(=O)Nc1cc(C)ccc1NC(=O)c1ccco1 | -6%[46.1 µM] | nt | 3% | 11% | nt | -3% | ? | -2%
CC(C)OC(=O)c1cc(Cl)c(=O)n(Cc2ccc(Cl)cc2Cl)c1 | nt | nt | 8% | 1% | nt | -23% | nt | -4%
Cn1nnnc1SCC(=O)NC1CCCc2ccccc21 (stereo unspecified) | 2%[46.1 µM] | nt | nt | 9% | nt | -6% | ? | -1%
Oc1c(Br)cc(Br)cc1Oc1ccc(Br)cc1Br | -30% | -13% | -16% | nt | 2.1% | nt | -12% | -74%
COc1cc(/C=N/NC(=O)CCc2c(C)n[nH]c2C)cc(OC)c1OC | 0% | 0% | -7% | 6% | -0.7% | 6% | 1% | 5%
Cc1ccccc1N1C(=O)C(Cl)=C(N2CCN(c3ccccc3)CC2)C1=O | -20% | ? | -8% | -4% | -3.3% | ? | 5% | 4%
O=C(NCc1ccc2c(c1)OCO2)c1cc(-c2cc(Cl)ccc2O)n[nH]1 | -7% | nt | 14% | -18% | nt | 1% | 2% | 1%
C=C(C)COc1ccc(-c2nc(N)nc(C(F)(F)F)c2-c2ccc(OC)cc2)c(O)c1 | nt | nt | 9% | -17% | nt | -24% | nt | 0%
COc1ccc(C(=O)NCC(c2ccccc2)c2ccccc2)cc1S(=O)(=O)N1CCOCC1 | -8% | nt | nt | 18% | nt | -5% | ? | nt
O=c1cc(-c2ccccc2)nc2c(-c3ccccc3)c(C(F)(F)F)[nH]n12 | -30%[46.1 µM] | nt | 17% | -10% | nt | 0% | ? | 4%
Cc1ccccc1NC(=O)CCC(=O)N/N=C/c1cccnc1 | 4%[46.1 µM] | nt | 4% | -3% | nt | -5% | -8%[46.1 µM] | -3%
CNC(=O)c1[nH]cnc1C(=O)Nc1ccccn1 | -14%[46.1 µM] | nt | 4% | -9% | nt | -10% | -11% | 0%
COc1cc(C(=O)Nc2nnc(CC(C)C)s2)c([N+](=O)[O-])cc1OC | nt | nt | -2% | 2% | nt | -16% | nt | 1%
CC1=C(C(=O)OC(C)C)C(c2cccs2)NC(=O)N1 (stereo unspecified) | 9%[46.1 µM] | nt | nt | 14% | nt | -7% | 3%[46.1 µM] | -4%
CCCCN1CC(Br)C(=O)NC1=O (stereo unspecified) | 2%[46.1 µM] | nt | nt | -9% | nt | 20% | 10%[46.1 µM] | nt
COc1ccc(C(=O)C2CCCN(C(=O)c3cccs3)C2)cc1F (stereo unspecified) | -28%[46.1 µM] | nt | -2% | 7% | nt | -20% | -17% | 0%
CCc1ccc(OC)c(S(=O)(=O)NCCOc2ccccc2)c1 | 7% | -7% | -12% | 15% | -4.2% | nt | -6% | -21%
Nc1nc(-c2ccccc2)c(N=Nc2ccccc2Cl)s1 | ? | -17% | 2% | -7% | -4.8% | -11% | -15% | 6%
Cc1oc(C(=O)O)cc1COc1cccc2ccccc12 | nt | nt | -53% | -3% | nt | -3% | nt | -8%
COc1ccc(-c2csc(N(CCCN(C)C)C(=O)c3cc(OC)c(OC)c(OC)c3)n2)cc1 | nt | nt | 1% | 2% | nt | -27% | nt | 2%
CCOC(=O)c1sc(N)nc1-c1ccccc1 | nt | 3% | -88% | 9% | -5.6% | -28% | nt | -109%
Cc1cccc(-n2c(Cc3ccccc3)nnc2SCc2nc(-c3cccs3)no2)c1 | -11%[46.1 µM] | -5% | nt | nt | -9.9% | -21% | -27%[46.1 µM] | nt
O=C(CCC1CCCC1)Nc1cc(C(F)(F)F)ccc1N1CCOCC1 | 2%[46.1 µM] | nt | nt | ? | nt | 3% | -4% | 2%
CCOC(=O)c1c(NC(=O)CSc2nnc(-c3cccc(C)c3)n2CC)sc(C(C)=O)c1C | ? | 11% | 18% | -4% | -1.4% | ? | -25% | -7%
O=C(CC1CCCCC1)OCn1nnc2ccccc2c1=O | 16% | -3% | -34% | 6% | -5.0% | 13% | 2% | 0%
CCC(C)NS(=O)(=O)c1cc2c3c(c1)CCN3C(=O)CC2 (stereo unspecified) | nt | nt | 0% | -12% | nt | -3% | nt | 0%
Cc1cc(C)c(NC(=O)CS(=O)CC(=O)Nc2ccc(F)cc2F)c(C)c1 (stereo unspecified) | nt | nt | -1% | 2% | nt | -23% | nt | -1%
Cc1[nH]c2ccccc2c1NC(=O)CN1CCN(Cc2ccc3c(c2)OCO3)CC1 | nt | -2% | -9% | nt | 6.1% | nt | nt | -12%
COc1ccc(OC)c(CNS(=O)(=O)c2cc(CN3C(=O)c4cccnc4C3=O)ccc2OC)c1 | 26%[46.1 µM] | nt | -4% | 2% | nt | -5% | 29%[46.1 µM] | -2%
CCOc1ccc(-c2nc3c(c(SCC(=O)N4CCCCC4)n2)Cc2ccccc2O3)cc1 | 8%[46.1 µM] | -6% | nt | nt | 0.1% | 5% | -4%[46.1 µM] | nt
COc1ccc(-n2c(C)n[nH]c2=O)cc1OC | -3% | -4% | 12% | -12% | 4.9% | -23% | 8% | 1%
CCCN1CCC(=O)N(CCO)CC1 | nt | nt | 35% | 0% | nt | 3% | nt | 11%
CN1CCN(C(=O)c2cc3ccccc3cc2O)CC1 | 15% | nt | nt | -12% | nt | -10% | 16% | 1%
CC1NC(=O)N(C)C2NC(=O)N(C)C(c3ccccc3)C12 (stereo unspecified) | 0% | 0% | -7% | 2% | 2.0% | -11% | 4% | 0%

Screening data as filed in PubChem.
